# High-throughput results from PubChem BioAssay.
# LASV entry inh – blocks Lassa virus binding to or entry into cells. Lassa virus pseudotype entry inhibition, cell reporter; control for the full effect not named in the record. actives 1.2% (n = 300,000). Potency, µM (doses to about 37.9 µM), inactives show top-dose activity change, negative = inhibition, usual class: inhibitors; active means well fitted inhibition curve with a large enough effect; inconclusive means small, poorly fitted or top-dose-only effect, or effect the other way; inactive means flat fitted curve, though single readings scatter; tested in HEK293 cells; also: % is scaled to controls: 0 for no effect and ±100 for the full control effect; nearly all actives have a fitted effect of over 50% in size; luciferase read-out
# Cruzain inh noDet – blocks cruzain activity in detergent-free assay. purified cruzain, Z-FR-AMC fluorescence, no detergent. actives 2.3% (n = 200,000). P25779. Potency, µM, for the others: max response, negative = inhibition, hits mostly inhibitors. AID 1476; active = well fitted curve in the direction sought with a large enough effect; inconclusive = small, poorly fitted or top-dose-only effect, or another doubt; inactive = no such curve, though single readings can be large; an effect the other way counts as inactive or inconclusive;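 also: plate controls were enzyme without inhibitor for no effect and buffer without enzyme for full effect; nearly all actives have a fitted effect of over 40% in size; top concentration of the series not given in the record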
# Target sequence (P25779 123-467 limits assumed): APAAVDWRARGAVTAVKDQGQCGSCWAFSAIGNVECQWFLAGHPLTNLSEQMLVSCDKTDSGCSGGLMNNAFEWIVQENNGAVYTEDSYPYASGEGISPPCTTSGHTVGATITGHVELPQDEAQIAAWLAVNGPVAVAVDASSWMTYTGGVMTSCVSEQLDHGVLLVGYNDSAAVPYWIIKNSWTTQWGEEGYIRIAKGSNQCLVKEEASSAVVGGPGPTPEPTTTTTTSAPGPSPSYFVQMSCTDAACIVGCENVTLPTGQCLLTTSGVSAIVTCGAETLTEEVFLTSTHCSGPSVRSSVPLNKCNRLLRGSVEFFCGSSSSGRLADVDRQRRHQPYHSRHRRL
#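 Detergent-free condition (0.00005% Triton X-100) in acetate buffer pH 5.5 with DTT. 1.5 nM enzyme and compound were pre-mixed 15 min, then 2 uM Z-FR-AMC substrate added; reaction progress from fluorescence change between first and third reads (60 s).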
# RE007 growth inh – less growth of the S. pombe RE007 Vpr strain. S. pombe RE007 Vpr strain, BacTiter-Glo ATP luminescence, 24 h; control for the full effect not named in the record. Potency, µM (series often up to 92.2 µM), inactives show at the top dose activity change, negative = less growth. actives 0.21% (n = 360,000). AID 651644; active = well fitted falling curve with a large enough effect; inconclusive = small, poorly fitted or top-dose-only effect; inactive = no such curve, though single readings can be large or run the other way;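 also: % is scaled to controls: 0 for no effect and ±100 for the full control effect; nearly all actives have a fitted effect of over 50% in size; the assay follows cell death caused by Vpr and the record does not say whether a fall means rescue or toxicity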
#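 Fission yeast RE007 carrying one integrated HIV-1 vpr copy, seeded at OD 0.01 in PMG+AL medium with 23 nL pinned compound. Grown 24 h at 30 degrees; viability read by BacTiter-Glo luminescence after 5 min.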
# SARS PLpro yeast – blocks SARS-CoV papain-like protease in a yeast assay; S. cerevisiae expressing SARS-CoV PLpro, growth rescue; control for the full effect not named in the record; Potency, µM (top dose mostly 32.9 µM), for the others: at the highest dose activity, positive = growth rescue; actives 0.19% (n = 330,000); AID 485353; also: 0% is about no effect; nearly all actives have a fitted effect of over 55% in size; growth read by luminescence after 48 h
# NS1 function inh – inhibitors of influenza NS1 protein function. S. cerevisiae slowed by influenza A NS1, growth recovery by OD600. Potency, µM (doses to about 46.1 µM), without a hit: top-dose activity, positive = more growth. actives 0.4% (n = 270,000). AID 2326; also: actives are rising curves; nearly all actives have a fitted effect of over 50% in size
#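 In this qHTS, NS1 from influenza A is expressed in budding yeast, where it slows growth. Cells are switched from glucose to 2% galactose medium (pH 6.0, -URA), treated with compound, and growth recovery is read at OD600.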
# StopGo reporter – FMDV 2A StopGo reporter, luciferase signal; actives 1.2% (n = 410,000); AID 1159524; human cells with a luciferase reporter of 2A StopGo recoding; control for the full effect not named in the record; Potency, µM (highest dose often 57.9 µM), inactives show at the highest dose signal change, negative = less light; active = well fitted falling curve with a large enough effect; inconclusive = small, poorly fitted or top-dose-only effect; inactive = no such curve, though single readings can be large or run the other way; tested in HEK293T cells; also: % is scaled to controls: 0 for no effect and ±100 for the full control effect; nearly all actives have a fitted effect of over 45% in size; luciferase light after 4 h
# Cruzain Triton – blocks cruzain activity in presence of Triton detergent | P25779 | AID 1478 | actives 0.43% (n = 200,000) | Potency, µM, for inactives: max response, negative = inhibition, actives largely listed as inhibitors | purified cruzain, Z-FR-AMC fluorescence, 0.01% Triton; active = well fitted curve in the direction sought with a large enough effect; inconclusive = small, poorly fitted or top-dose-only effect, or another doubt; inactive = no such curve, though single readings can be large; an effect the other way counts as inactive or inconclusive;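 also: plate controls were neutral wells for no effect and buffer without enzyme for full effect; nearly all actives have a fitted effect of over 40% in size; top concentration of the series not given in the record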
#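 15 min RT preincubation of 1.5 nM cruzain with compound, then 2 uM Z-FR-AMC added; kinetic AMC fluorescence, 60 s delta. Triton X-100 0.01%, pH 5.5.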
# MARV entry inh – inhibitors of Marburg virus binding or cell entry; Marburg virus pseudotyped entry inhibition, cell reporter; control for the full effect not named in the record; about a third of the inactives were read at about 46 µM; Potency, µM (titrated, usually from 37.8 µM), inactives show top-dose activity change, negative = inhibition, actives largely listed as inhibitors; actives 1.8% (n = 300,000); AID 540276; active = well fitted inhibition curve with a large enough effect; inconclusive = small, poorly fitted or top-dose-only effect, or effect the other way; inactive = flat fitted curve, though single readings scatter; tested in HEK293 cells; about a fifth of its hits are not listed in these tables; also: % is scaled to controls: 0 for no effect and ±100 for the full control effect; luciferase read-out
# Active calls of the source: *; ? = inconclusive; nt = not tested or not shown; & = joins results of further samples; [ ] = remark or other dose. Unless noted, calls follow the shape of the dose curve; as a rule, active means well fitted rising curve with a large enough effect; inconclusive means small, poorly fitted or top-dose-only effect; inactive means no such curve, though single readings can be large or run the other way. Potency is read from the fitted curve at half-maximal effect.
SMILES,LASV entry inh,Cruzain inh noDet,RE007 growth inh,SARS PLpro yeast,NS1 function inh,StopGo reporter,Cruzain Triton,MARV entry inh
CN(c1ccc(OCC(=O)NC2=NCCS2)cc1)S(=O)(=O)c1ccc(F)cc1,nt,nt,0%,0%,4%,-2%,nt,nt
O=C(C=C=Nc1ccccc1)C(=O)N=C=Cc1ccccc1,7%,nt,0%,1%,0%,?,nt,?
CC(=O)C1=C(C)Nc2cc(C(F)(F)F)ccc2S1,7%,-8%,7%,-4%,-134%,27%,-4.7%,?
O=C(Nc1ccc(CN2CCCCC2)cc1)Nc1ccccc1Cl,nt,nt,-7%,1%,-6%,23%,nt,nt
C[C@]12CC[C@H](O)CC1=CCC1C2CC[C@@]2(C)C1CC[C@@H]2OCc1ccccc1 (stereo not given in full),-2%,nt,6%,1%,nt,-9%,nt,0%
CCn1c2ccccc2c2cc(NC(=O)CNCc3ccccc3OC)ccc21,?,nt,-23%,0%,-3%,-5%,nt,5.6µM*
COc1ccc(N2CCN(C(=O)c3c(C)nn(-c4ccccc4)c3C)CC2)cc1,14%,24%,10%,7%,-15%,?,-1.3%,-9%
O=S(=O)(c1ccc(F)cc1)N1CCN(C(=S)NC2CCCC2)CC1,-7%,-14%,16%,6%,-7%,0%,-3.8%,-21%
COc1ccc(NC(=O)CSCc2cc(=O)n3nc(C4CC4)sc3n2)cc1,nt,nt,7%,1%,7%,3%,nt,nt
O=C(CN(Cc1ccco1)C(=O)CNS(=O)(=O)c1ccccc1)NCc1ccc(F)cc1,?,7%,32%,1%,-4%,-21%,2.5%,19%&19%[46.1 µM]

# Quoted from the listing:
# RE007 growth inh, CCn1c2ccccc2c2cc(NC(=O)CNCc3ccccc3OC)ccc21 → -23%
# StopGo reporter, CC(=O)C1=C(C)Nc2cc(C(F)(F)F)ccc2S1 → 27%

# Continuation.
SMILES,LASV entry inh,Cruzain inh noDet,RE007 growth inh,SARS PLpro yeast,NS1 function inh,StopGo reporter,Cruzain Triton,MARV entry inh
COC(=O)c1scc2c(Oc3ccccc3)cc(C(F)(F)F)nc12,18%[46.1 µM],nt,20%,1%,1%,-10%,nt,17%[46.1 µM]
COc1cc(NS(=O)(=O)c2ccc3ccccc3c2)c2ncccc2c1,?,nt,-9%,3%,-23%,40%[activator],nt,?
CS(=O)(=O)n1nc(OC(=O)c2cccs2)cc1N,nt,nt,-1%,3%,8%,13%,nt,nt
COc1ccc(CSCC(=O)N/N=C/c2ccc(OCC(=O)N3CCCCC3)cc2)cc1,-17%,-5%,9%,5%,-1%,nt,-1.3%,10%
CCOc1ccc(N(C(=O)C2CCCO2)C2C=CS(=O)(=O)C2)cc1 (stereo not given),9%,nt,-7%,0%,nt,-8%,nt,?
OCCn1c(-c2ccccc2)csc1=Nc1ccccc1,0%,-5%,5%,13%,-4%,0%,-3.7%,?
COc1ccc(NC(=O)Nc2ccc3oc(C)nc3c2)cc1,16%,nt,7%,-2%,-1%,0%,nt,21%[46.1 µM]
COc1ccc(CNC(=O)CC2C(=O)NCCN2C2Cc3ccccc3C2)cc1 (stereo not given),?,nt,5%,7%,3%,3%,nt,6%
Cc1ccc(C(=O)Nc2ccc3nc(C)sc3c2)s1,?,16%,0%,-16%,-130%,14%,-6.8%,-8%
O=C(Nc1c2c(nn1-c1ccccc1)CS(=O)(=O)C2)c1ccco1,11%,nt,4%,?,10%,-6%,nt,16%
Cc1ccc2c(nc3s/c(=C/c4cccs4)c(=O)n32)c1C,?,16µM*,11%,9%,14%,33%[activator],-1.6%,?
Cc1ccc(C)c(NC(=O)COC(=O)CC2CC3CCC2C3)c1 (stereo not given),-2%[46.1 µM],nt,9%,1%,nt,-8%,nt,14%[46.1 µM]
CCCNC(=O)[C@@H]1CCCN1C(=O)[C@@H]1Cc2ccccc2CN1,5%,nt,2%,0%,8%,10%,nt,20%
CC1(C)Cc2c(cnn2-c2cccc(F)c2)C(NC(=O)Cn2cccn2)C1 (stereo not given),-4%,nt,-1%,-6%,3%,9%,nt,-20%
O=C(CSc1nnc(-c2cccnc2)o1)Nc1nccs1,?,nt,5%,6%,nt,18%,nt,8%
Cc1c(C#N)c2ccccc2n1CC(=O)NCc1ccccc1,-1%,-15%,11%,-8%,10%,-25%,0.9%,-20%
Cc1cc(OC(=O)c2c(C)cc(O)cc2O)cc(O)c1C(=O)O,nt,?,2%,2%,nt,?,-5.4%&5.5%,nt
CCCCC(C)Sc1nc2c([nH]1)c(=S)n(C)c(=O)n2C (stereo not given),0%,nt,-3%,nt,nt,?,nt,?
O=C(CC1NC2CCCCC2NC1=O)Nc1cccc(C(F)(F)F)c1 (stereo not given),-7%,-8%,14%,nt,-2%,-18%,4.2%,?
Cc1c(NC(=O)c2cc(-c3ccccc3)on2)c(=O)n(-c2ccccc2)n1C,-1%,-4%,1%,6%,-5%,nt,-3.2%,1%
Nc1cccc(Oc2ccc3c(c2)C(=O)NC3=O)c1,14%[46.1 µM],nt,3%,0%,-8%,-5%,nt,-8%[46.1 µM]
COc1ccc(-c2ccc(NS(=O)(=O)c3ccc(C(C)=O)cc3)cc2)nn1,?,5%,nt,nt,nt,-5%,-5.1%,nt
O=C1c2ccccc2C(=O)c2cc(NC(=O)C3CC3)ccc21,-10%,-1%,2%,-11%,0%,21%,4.1%,?
Cc1ccc(NC(=O)CN2C(=O)CSc3ccc(S(=O)(=O)N(C)C)cc32)c(C)c1,22%[46.1 µM],-17%,nt,nt,nt,9%,2.4%,nt
Cc1c(-c2ccc(F)cc2)nc(N)c(C#N)c1-c1ccco1,-9%,-11%,10%[3.69 µM],6%,0%,0%,-21%,-1%
Cc1ccc(S(=O)(=O)NC(C(=O)OCC(=O)NC2CCS(=O)(=O)C2)C(C)C)cc1 (stereo not given),12%,1%,-6%,8%,-1%,-22%,-2.2%,24%&24%
CC1Cn2c(C(=O)NCCc3ccc(Cl)cc3)cc3cccc(c32)S1 (stereo not given),-18%[46.1 µM],-24%,nt,nt,nt,-21%,-9.8%,nt
CCCCNC(=O)NNC(=O)c1ccc(F)cc1,-12%,7%,-13%,4%,-18%,-2%,-0.6%,?
COc1ccc(C2N(c3ccc(C)cc3)CCN2c2ccc(C)cc2)cc1O,?,nt,-29%,-3%,nt,-5%,nt,?
O=C(OC(c1ccccc1)c1nccc2ccccc12)c1cc([N+](=O)[O-])cc([N+](=O)[O-])c1 (stereo not given),?,?,nt,-69%,7%,-10%,-5.4%,?
Cc1ccc2onc(CC(=O)N3CCN(c4ccc(Cl)cc4)CC3)c2c1,7%[46.1 µM],8%,nt,nt,nt,-18%,-1.4%,nt
CCOC(=O)C1CCN(C(=O)c2oc3ccc(S(=O)(=O)N4CCCCCC4)cc3c2C)CC1,-27%,?,-2%,-8%,-39%,?,-3.0%,?
CC(=O)N1CC2(C)CN(C(C)=O)CC(C)(C1)C2=O,-23%,1%,19%,-1%,16%,1%,-0.1%,-4%[46.1 µM]
CC(C)c1nc(=S)c2ccccc2[nH]1,-19%,11%,-18%,19%,4%,11%,5.5%,25%
CC(=O)Nc1ccc(NC(=O)CSc2nnc(NC(=O)Cc3ccc(F)cc3)s2)cc1,0%,nt,-10%,-4%,5%,-8%,nt,23%
CC(C)Oc1ccc(Cc2cnc(N)nc2N)cc1,26%,0%,-2%,-15%,10%,-25%,4.0%,-19%
O=C(CCCN1C(=O)CSc2ncccc21)N1CCN(Cc2ccccc2)CC1,nt,1%,2%,2%,11%,?,-2.6%,nt
CCOc1ccc(C2CC(c3ccc(OC)c(OC)c3)n3nc(N)nc3N2)cc1 (stereo not given),-1%,16%,7%,?,10%,-3%,0.3%,-17%
CN1CCN(c2nc(-c3ccco3)cc(C(F)(F)F)n2)CC1,-1%,-4%,10%,-2%,0%,12%,-4.2%,0%
CN1CCC(CO)(Cc2ccccc2)CC1,nt,nt,-3%,0%,2%,-5%,nt,nt
COc1ccc(N=Cc2nc(-c3ccco3)oc2O)cc1,23%,?,?,-20%,-1%[9.22 µM],6%,?,12%
NC(=O)C1CCN(C(=O)/C=C/c2ccco2)CC1,4%,-5%,4%,11%,22%,-11%,-3.1%,23%
Cc1cccc(N2CCN(C(=O)c3ccc4ncsc4c3)CC2)c1C,-26%,5%,0%,-1%,-3%,-5%,-5.5%,?
Cc1c(Cl)cccc1NC(=S)NCCc1ccc(C(F)(F)F)cc1,?,nt,16%,-24%,nt,-22%,nt,10µM*
O=C(O)Cn1c(=O)c2c3c(sc2n(Cc2ccc(Cl)cc2Cl)c1=O)CCCC3,0%[46.1 µM],nt,-24%,1%,10%,-19%,nt,?
CC(/C=N/NC(=O)Cc1cccn1C)=C\c1ccccc1,20%,-8%,-1%,10%,4%,33%[activator],-6.5%,?
O=C(O)CN1C(=O)/C(=C\c2cccc(OC(=O)c3ccco3)c2)SC1=S,?,nt,1%,0%,?,-13%,nt,17%[46.1 µM]
CCC(C)n1c(O)c(/C=N/NC(=O)c2ccncc2)c(=O)[nH]c1=S (stereo not given),8%,8%,-6%,11µM*,26%,-10%,-4.1%,7%
O=C1CSC(=S)N1/N=C/c1cccc(C(F)(F)F)c1,-6%[46.1 µM],nt,?,3%,4%,23%,nt,?
CCCC[n+]1c(C)sc2ccc(C)cc21,nt,nt,-3%,0%,3%,-17%,nt,nt
# Remaining list, next part
SMILES,LASV entry inh,Cruzain inh noDet,RE007 growth inh,SARS PLpro yeast,NS1 function inh,StopGo reporter,Cruzain Triton,MARV entry inh
Cc1cccn2c3c(c(=O)nc12)C(c1cccc(F)c1)CC(=O)N3 (stereo not given),15%[46.1 µM],5%,nt,nt,nt,-10%,0.6%,-13%[46.1 µM]
CCOc1ccccc1NC(=O)CNC(=O)CNC(=O)Cc1ccccc1,?,nt,16%,0%,2%,-14%,nt,-4%
Cc1cc(=O)oc2cc(OCC(=O)N3CCN(Cc4ccccc4)CC3)ccc12,-17%,nt,-7%,-2%,nt,-28%,nt,-14%
O=C(COc1ccc(S(=O)(=O)NCc2ccccc2)cc1)N1CCOCC1,1%,0%,8%,21%,-9%,nt,3.5%,17%
